2A StopGo – High Throughput Screening for Foot and Mouth Disease Virus Antivirals | AID 1159524, 2015 | hit rate 1.2% among 410,000 | Potency, µM (highest dose often 57.9 µM), without a hit: top-dose signal change, negative = less light | human cells with a luciferase reporter of 2A StopGo recoding; control for the full effect not named in the record; active = well fitted falling curve with a large enough effect; inconclusive = small, poorly fitted or top-dose-only effect; inactive = no such curve, though single readings can be large or run the other way; tested in HEK293T cells; note: % is set by controls: 0 for no effect and ±100 for the full control effect; nearly all actives have a fitted effect of over 45% in size; luciferase light after 4 h
SARS PLP yeast – qHTS of Yeast-based Assay for SARS-CoV PLP | S. cerevisiae expressing SARS-CoV PLpro, growth rescue; control for the full effect not named in the record | Potency, µM (highest dose often 32.9 µM), for inactives: top-dose activity, positive = growth rescue | hit rate 0.19% among 330,000; active means well fitted rising curve with a large enough effect; inconclusive means small, poorly fitted or top-dose-only effect; inactive means no such curve, though single readings can be large or run the other way; note: 0% is about no effect; nearly all actives have a fitted effect of over 55% in size; growth read by luminescence after 48 h
RE007 growth inh – qHTS Assay for Inhibitors of the HIV-1 protein Vpr. S. pombe RE007 Vpr strain, BacTiter-Glo ATP luminescence, 24 h; control for the full effect not named in the record. AID 651644, 2012. Potency, µM (series often up to 92.2 µM), for inactives: at the top dose activity change, negative = less growth. hit rate 0.21% among 360,000; active = well fitted falling curve with a large enough effect; inconclusive = small, poorly fitted or top-dose-only effect; inactive = no such curve, though single readings can be large or run the other way;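 note: % is set by controls: 0 for no effect and ±100 for the full control effect; nearly all actives have a fitted effect of over 50% in size; the assay follows cell death caused by Vpr and the record does not say whether a fall means rescue or toxicity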
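Fission yeast RE007 carrying one integrated HIV-1 vpr copy, seeded at OD 0.01 in PMG+AL medium with 23 nL pinned compound. Grown 24 h at 30 degrees; viability read by BacTiter-Glo luminescence after 5 min.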
Numbers without * were called inactive; u = inconclusive; [ ] = remark or other dose. Potency is the fitted concentration of half-maximal effect. Some of the compounds tested, so the mix of outcomes need not match the whole.

SMILES	2A StopGo	SARS PLP yeast	RE007 growth inh
COc1cc(CNC2CCCCC2OC)cc(OC)c1 (stereo not drawn)	-3%	-1%	-20%
COc1ccc(-n2sc3ccc(F)cc3c2=O)cc1	-59%	0%	10µM*
O=C(NNC(=O)c1ccc2nc[nH]c2c1)c1ccccc1	14%	6%	14%
OCCNc1nc2nonc2nc1NCCO	9%	2%	-6%
CCN(CC(=O)Nc1ccc(NC(C)=O)cc1)CC(=O)Nc1ccccc1C(=O)c1ccccc1	-21%	-2%	-3%
C[C@H](/C=C/[C@@]1(O)[C@H](C)C[C@H](O)CC1(C)C)O[C@@H]1O[C@H](CO)[C@@H](O)[C@H](O)[C@H]1O	-19%	5%	-3%
COc1ccc(-c2c(-c3cc(OC)cc(OC)c3)n(C)c3ccc(-c4cnc(OC)nc4)cc23)cc1	-2%	10%	1%
CN(CC(=O)Nc1cccc(F)c1)C(=O)c1cccc(N2C(=O)CCC2=O)c1	-11%	4%	10%
COCc1c(C(=O)NC2CCCCC2)sc2cccc(F)c12	4%	-6%	-13%
O=C(NCc1cccc(OC(F)(F)F)c1)c1ccc2c(c1)S(=O)(=O)c1cc(Cl)ccc1C2=O	0%	5%	-3%
c1ccc(CCCCNCC2COc3ccccc3O2)cc1 (stereo not drawn)	10%	-1%	-3%
COc1ccc(-c2nnc(SCC(=O)NC(=O)Cc3ccccc3)n2C)cc1	-1%	-1%	13%
O=C(C[C@H]1C/C=C\C[C@@H](Cc2ccc(F)cc2)C(=O)O[C@H](c2ccccc2)CNC1=O)NCCO	-11%	-5%	-3%
CCCNC(=O)c1nn2cc(Br)cnc2c1Br	0%	-9%	29%
COC(=O)C1=C(c2ccc(C(C)=O)cc2)C[C@@H]2CC[C@H]1N2C(=O)NCCCOC(C)C	-15%	2%	2%

A draw from above in order of number of heavy atoms, low to high.
SMILES	2A StopGo	SARS PLP yeast	RE007 growth inh
CCCNC(=O)c1nn2cc(Br)cnc2c1Br	0%	-9%	29%
O=C(NCc1cccc(OC(F)(F)F)c1)c1ccc2c(c1)S(=O)(=O)c1cc(Cl)ccc1C2=O	0%	5%	-3%
CCN(CC(=O)Nc1ccc(NC(C)=O)cc1)CC(=O)Nc1ccccc1C(=O)c1ccccc1	-21%	-2%	-3%

Exported with bars between the fields: 6 of the compounds above.
smiles | 2A StopGo | SARS PLP yeast | RE007 growth inh
O=C(NCc1cccc(OC(F)(F)F)c1)c1ccc2c(c1)S(=O)(=O)c1cc(Cl)ccc1C2=O | 0% | 5% | -3%
OCCNc1nc2nonc2nc1NCCO | 9% | 2% | -6%
c1ccc(CCCCNCC2COc3ccccc3O2)cc1 (stereo not drawn) | 10% | -1% | -3%
C[C@H](/C=C/[C@@]1(O)[C@H](C)C[C@H](O)CC1(C)C)O[C@@H]1O[C@H](CO)[C@@H](O)[C@H](O)[C@H]1O | -19% | 5% | -3%
CCCNC(=O)c1nn2cc(Br)cnc2c1Br | 0% | -9% | 29%
CN(CC(=O)Nc1cccc(F)c1)C(=O)c1cccc(N2C(=O)CCC2=O)c1 | -11% | 4% | 10%

Next part
SMILES	2A StopGo	SARS PLP yeast	RE007 growth inh
C=CCC[C@H](Cc1ccc(F)cc1)C(=O)OC[C@@H](Cc1c[nH]c2ccccc12)NC(=O)[C@H](CC=C)CC(=O)N[C@H](CO)Cc1ccccc1	u	5%	-10%
Cc1ccc(S(=O)(=O)N2CCN(C(=O)COC(=O)c3ccc([N+](=O)[O-])o3)CC2)c(C)c1	-21%	-3%	-9%
O=C(Nc1ccccc1N1CCOCC1)c1ccc(F)c(S(=O)(=O)N2CCOCC2)c1	-18%	-11%	-15%
CN(C)C1=NC[C@H](Cc2ccccc2)N1CCCCc1ccccc1	-18%	4%	3%
COC(=O)c1ccc(NCN2C(=O)C3C4CCC(C4)C3C2=O)cc1 (stereo not drawn)	-5%	0%	-7%
O=C(CN1C(=O)NC2(CCCC2)C1=O)Nc1nc(-c2ccc(F)c(F)c2)cs1	u	7%	8%
Cc1ccc(C)c(NC(=O)c2ccc3c(=O)n4c(nc3c2)CCC4)c1	44%[activator]	2%	9%
CCC1Nc2ncnc(N3CCN(c4ccccn4)CC3)c2N(Cc2ccc(Cl)cc2)C1=O (stereo not drawn)	-8%	-6%	0%
O=C(NOCc1ccccc1)c1coc(-c2ccccc2)n1	21%	-46%	19%
CC1CCCC(C)N1C(=O)COC(=O)c1cc([N+](=O)[O-])ccc1N1CCOCC1 (stereo not drawn)	-13%	11%	4%
N#Cc1ccc(CN2CCN(C(=O)c3cc(Cl)c4c(c3)OCCO4)CC2)cc1	u	-7%	11%
CCOC(=O)c1ccc(-c2c(-c3ccc(OC)cc3)oc(=O)c3cc(OC)c(OC)cc23)cc1F	-22%	1%	-14%
Cc1c[n+]([O-])cc(C)c1Oc1ccccc1	-17%	-4%	-12%
Cc1ccccc1NC(=O)Cc1nc(COC(=O)CCC(=O)c2ccccc2)cs1	-9%	-1%	5%
CCOC(=O)[C@H]1[C@H]2COc3ccc(Cl)cc3[C@@H]2N2C(=O)CN(CC3CCCO3)C(=O)[C@@]12C (stereo partly drawn)	-20%	4%	-7%
Cc1cccc(C)c1NC(=O)c1ccc(OCc2c(C)noc2C)cc1	-7%	0%	-11%
COc1ccc(S[C@@H](CCN2CC[C@H](O)CCC2=O)c2ccccc2)cc1	1%	-8%	3%
CC(C)N(Cc1ccccc1)C(=O)COC(=O)c1cc[n+]([O-])cc1	0%	4%	-3%
Cc1ccc(C(=O)Nc2ccccc2N2CCCC2)cc1S(=O)(=O)N1CCOCC1	-23%	2%	-13%
CC(C)(C)N(Cc1ccccc1)C(=O)CN1C(=O)NC2(CCCCCC2)C1=O	-25%	3%	-5%
COC(=O)c1ccc(NC(=O)C(=O)c2cccn2C)cc1	-15%	-11%	-27%
Cc1ccc(C(=O)NNC(=O)COC(=O)COc2ccccc2C#N)cc1	6%	2%	12%
CCOc1[nH]n(-c2ccccc2)c(=O)c1C=Nc1ccc(C)cc1	0%	3%	-5%
CC1[C@H]2Cc3ccc(O)cc3[C@]1(C)CCN2CCc1ccccc1 (stereo partly drawn)	-24%	-2%	-7%
CC(NC(=O)COC(=O)c1ccc(CO)cc1)C1CC2CCC1C2 (stereo not drawn)	-10%	0%	1%
COc1cc(C(=O)Nc2ccc(C(=O)O)cc2)ccc1OC(C)=O	-9%	0%	-12%
CN1CCc2c(n(CC(O)CN3CCN(CCO)CC3)c3ccccc23)C1=O (stereo not drawn)	6%	-8%	-5%
CC(=O)Nc1ccc(N=Cc2c(O)c(C(=O)Nc3ccccc3)cc3ccccc23)cc1	u	3%	-1%
NS(=O)(=O)c1ccc(NC(=O)c2ccc(S(=O)(=O)N3CCCCC3)cc2)cc1	-19%	2%	12%
Cc1cc(C)n2nc(SCC(=O)N(CCC#N)c3ccc(F)cc3)nc2n1	-6%	2%	1%
COc1ccccc1NC(=O)CCCn1c(=S)[nH]c2ccccc2c1=O	9%	0%	12%
Cc1ccc(NC(=O)CCC(=O)c2ccc(Cl)s2)nc1	23%	-9%	-8%
Cc1oc(-c2ccccc2)nc1C(=O)OCC(=O)NCc1ccc(Cl)cc1	-15%	1%	9%
C[C@H](NC(=O)c1ccc(C(C)(C)C)cc1)C(=O)N1CCN(C/C=C/c2ccccc2)CC1	u	-5%	7%
CN(CC(=O)N(C)CC(=O)Nc1c(Cl)cccc1Cl)Cc1ccccc1F	3%	0%	-11%
Cc1ccc(C(C)n2cc(C(=O)NCc3ccccn3)nn2)cc1 (stereo not drawn)	0%	1%	-4%
Nc1cc(=O)[nH]c(SCC(=O)Nc2cc(S(=O)(=O)N3CCCCC3)ccc2Cl)n1	-25%	13%	13%
O=C(OCC(=O)N1CCOCC1)c1ccc2ccccc2c1	34%[activator]	1%	3%
COc1ccc2sc(-c3ccccc3OC)c(-c3ccc(OCCN(C)C)cc3)c2c1	-4%	3%	4%
Cc1ccc(C(=O)NNC(=O)c2ccc(Br)s2)cc1S(=O)(=O)N1CCOCC1	-7%	0%	-1%
COc1ccc(C(C)(C)C)cc1NC(=O)CCN1C(=O)C2CCCCC2C1=O (stereo not drawn)	1%	-4%	10%
O=C(COC(=O)c1ccc(F)c(S(=O)(=O)N2CCOCC2)c1)Nc1ccc2[nH]c(=O)[nH]c2c1	-11%	-4%	7%
Cc1cc(=O)oc2cc(OC(C)C(=O)NC3(C#N)CCCCC3)ccc12 (stereo not drawn)	-16%	-2%	-14%
O=C(C1=COCCO1)N1CCN(S(=O)(=O)c2cccc(F)c2)CC1	-8%	11%	6%
O=C(COC(=O)/C=C/c1cccc(Br)c1)NC1CCCCC1	-1%	-42%	3%
Cc1noc(C)c1C(=O)OC(C)C(=O)N(C)c1ccccc1 (stereo not drawn)	-16%	-9%	2%
CC(C)N(C(=O)NC(=O)Nc1ccc(S(=O)(=O)N2CCCC2)cc1)S(C)(=O)=O	0%	3%	14%
O=C(COC(=O)CN1C(=O)C2CCCCC2C1=O)NCc1ccc(Cl)cc1Cl (stereo not drawn)	-15%	0%	-11%
O=C(COC(=O)c1cc(S(=O)(=O)N2CCOCC2)ccc1F)Nc1ccc2c(c1)OCO2	-10%	-5%	-9%
O=C(c1ccc[nH]1)N1O[C@@H]2C=C[C@H]1C2	-12%	6%	-17%
Cn1c(N)c(C(=O)COC(=O)CNC(=O)c2ccccc2Cl)c(=O)n(C)c1=O	-1%	-1%	2%
COc1ccc(S(=O)(=O)N(C)C[C@@H]2Oc3ccc(NS(=O)(=O)c4cn(C)cn4)cc3C(=O)N([C@@H](C)CO)C[C@@H]2C)cc1	1%	14%	0%
COc1cccc(NC(=O)COC(=O)C2CCCCC2)c1	0%	-10%	-13%
C=CCn1c2ccccc2c(=O)c2cc(C#Cc3cc(OC)cc(OC)c3)ccc21	-2%	-7%	-5%
O=C(CSc1nnc(C2CC2)n1C1CC1)c1cccs1	42%[activator]	5%	16%
CSCCC(NC(=O)COc1ccccc1)C(=O)N(C)Cc1ccc(F)cc1 (stereo not drawn)	27%	2%	0%
Cc1c(C(C)C[C@H](C)O)oc(=O)c2c1Oc1c(C)c(C(C)C[C@H](C)O)oc(=O)c1C2 (stereo partly drawn)	-14%	0%	0%
COc1ccc(-n2nnnc2SCC(=O)NC2CCS(=O)(=O)C2)cc1 (stereo not drawn)	-19%	-3%	-10%
O=C(NC1CCCC1)c1cccc(S(=O)(=O)N2CCCC2)c1	-10%	-5%	6%
COCc1c(C(=O)NCCOc2ccc(Cl)cc2)oc2ccccc12	-14%	-6%	-25%
Cc1ccc(S(=O)(=O)N2[C@@H](c3ccc4c(c3)OCO4)C(C(=O)O)=C[C@H]2CC2CCCC2)cc1	9%	-5%	13%

Entries of single compounds as entered above.
Results for Cc1noc(C)c1C(=O)OC(C)C(=O)N(C)c1ccccc1 (stereo not drawn) = 2A StopGo = -16%; SARS PLP yeast = -9%; RE007 growth inh = 2%
Results for CSCCC(NC(=O)COc1ccccc1)C(=O)N(C)Cc1ccc(F)cc1 (stereo not drawn) = 2A StopGo = 27%; SARS PLP yeast = 2%; RE007 growth inh = 0%
Results for O=C(COC(=O)CN1C(=O)C2CCCCC2C1=O)NCc1ccc(Cl)cc1Cl (stereo not drawn) = 2A StopGo = -15%; SARS PLP yeast = 0%; RE007 growth inh = -11%

Assay outcomes: PubChem BioAssay, National Center for Advancing Translational Sciences (NCATS)
